Source: PubChem (several laboratories)
Yeast UUG start: alters start codon recognition fidelity in yeast; hit rate 0.13% among 350,000; AID 602363; S. cerevisiae UUG-firefly luciferase reporter, luminescence/redox ratio; activity score, % at 18.7 µM;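 active = replicate mean at a twofold rise or more, about +100% in these data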;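 also: firefly luciferase made from a UUG start codon reports start codon fidelity; reporter light over untreated wells divided by growth signal over untreated wells; some hits fall short of that in this replicate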
MT1-MMP act inh: blocks activation of human MT1-MMP; P50281; HT1080 RFP-PRO-GFP cells, GFP/RFP ratio fluorescence, overnight; percent of plate control window, DMSO zero; GFP/RFP ratio change, % at 20 µM; hit rate 0.061% among 360,000; AID 651647;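 active = GFP/RFP ratio change of at least 30% with cell ATP level not reduced by more than half and red fluorescence within 50% of control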; also: strong numbers were not always called active
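Assay system: HT1080 RFP-PRO-GFP cells. Benchmarks: DMSO vehicle wells and RFP-L50D-GFP reporter cell wells. Times: overnight cell settling, then overnight compound exposure, 37 °C, 5% CO2. Compound: 20 µM single dose, 1% DMSO. Read-out basis: GFP/RFP fluorescence ratio.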
Env fusion inh: HIV envelope-mediated fusion inhibition; hit rate 1.1% among 360,000; HeLa-JRFL Env/CEM21 cell fusion, luciferase; inhibition, % at 12.3 µM; AID 651610;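 active = mean replicate inhibition score of at least 50 and every replicate individually at or above 50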;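 also: 0% = plate neutral controls and 100% = maraviroc near 300 nM; one replicate is shown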
MT1-MMP act inh RFP: second read-out of MT1-MMP act inh, no call of its own (marks repeat the call); RFP signal change, %; measured here: RFP expression control read;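 0 = vehicle wells; hits needed this value within 50% of zero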
Numbers without * were called inactive; · = no result given; [ ] = dose if it differs, or a comment. This is a subset, so the mix of outcomes need not match the whole.

SMILES	Yeast UUG start	MT1-MMP act inh	MT1-MMP act inh RFP	Env fusion inh
Cc1noc(C)c1NC(=O)Nc1cccc2c1O[C@H](CN(C)Cc1ccc3c(c1)OCO3)[C@@H](C)CN([C@@H](C)CO)C2=O	7.4	·	·	11.6[16.7 µM]
COc1ccc(NC(=O)Nc2cccc3c2O[C@H](CN(C)C(=O)Nc2c(C)noc2C)[C@H](C)CN([C@@H](C)CO)C3=O)cc1	4.2	·	·	14.9[16.7 µM]
COCc1cn(CC[C@H]2CC[C@H](NC(=O)c3ccc(F)cc3)[C@@H](CO)O2)nn1	-5.7	·	·	-0.8[16.7 µM]
CCNC(=O)C[C@H]1CC[C@@H](NC(=O)C2CCOCC2)[C@H](CO)O1	-8.2	·	·	15.6[16.7 µM]
COc1ccc(CN(C)C[C@@H]2OCCCC[C@H](C)Oc3ccc(NS(=O)(=O)c4ccc(OC)cc4)cc3C(=O)N([C@H](C)CO)C[C@@H]2C)cc1	16.5	·	·	-32.5[16.7 µM]
Cc1noc(C)c1NC(=O)NCC[C@@H]1CC[C@H](NC(=O)c2ccccc2)[C@H](CO)O1	10.1	·	·	-1.8[16.7 µM]
C[C@@H]1CN([C@H](C)CO)C(=O)c2cccc(NC(=O)Nc3ccccc3)c2O[C@@H]1CN(C)S(=O)(=O)c1cccs1	-5.9	·	·	14.8[16.7 µM]
COC(=O)C[C@@H]1CC[C@H]2[C@@H](COc3ccc(NC(=O)Nc4ccc(C#N)cc4)cc3C(=O)N2C)O1	1.0	·	·	-13.6[16.7 µM]
C[C@H]1CN([C@@H](C)CO)C(=O)Cc2cc(NC(=O)Cc3cn(C)c4ccccc34)ccc2O[C@H]1CN(C)Cc1ccc(C(F)(F)F)cc1	7.1	·	·	8.7[16.7 µM]
CN(C)CCCNC(=O)C[C@@H]1CC[C@H]2[C@H](COc3ccc(NC(=O)NC4CCCC4)cc3C(=O)N2C)O1	-1.6	·	·	-14.1[16.7 µM]
COC(=O)C[C@@H]1CC[C@H]2[C@@H](COc3ccc(NC(=O)c4ccc(OC)cc4)cc3C(=O)N2C)O1	3.9	·	·	-36.5[16.7 µM]
C[C@H](CO)N1C[C@H](C)[C@@H](CN(C)C(=O)C2CCCCC2)Oc2cc(-c3cccnc3)ccc2S1(=O)=O	-2.5	·	·	10.9[16.7 µM]
C[C@@H]1CCCCO[C@H](CN(C)S(=O)(=O)c2ccccc2)[C@H](C)CN([C@@H](C)CO)C(=O)c2cc(NC(=O)NC3CCCCC3)ccc2O1	-5.2	·	·	27.2[16.7 µM]
O=C(C[C@@H]1C=C[C@@H](NC(=O)C2CC2)[C@H](CO)O1)NCc1ccccc1Cl	0.4	·	·	-1.6[16.7 µM]
C[C@H](CO)N1C[C@H](C)[C@@H](CN(C)C(=O)Nc2ccc3c(c2)OCO3)OCCCC[C@H](C)Oc2ccc(NS(=O)(=O)c3ccccc3)cc2C1=O	2.8	·	·	-45.8[16.7 µM]
C[C@H]1CN([C@@H](C)CO)C(=O)c2cc(C#CCN(C)C)cnc2O[C@@H]1CN(C)S(C)(=O)=O	5.3	·	·	-16.0[16.7 µM]
C[C@H](CO)N1C[C@H](C)[C@H](CN(C)C(=O)C2CC2)Oc2ncc(C#Cc3cccc(F)c3)cc2C1=O	-6.2	·	·	-8.2[16.7 µM]
C[C@H]1CCCCO[C@H](CN(C)S(=O)(=O)c2ccc(Cl)cc2)[C@@H](C)CN([C@@H](C)CO)C(=O)c2cc(NC(=O)c3ccccc3)ccc2O1	-17.5	·	·	-3.5[16.7 µM]
C[C@@H](NC(=O)C[C@@H]1CC[C@H]2[C@@H](COC[C@H](O)CN2Cc2ccc(C(F)(F)F)cc2)O1)c1ccccc1	-14.8	·	·	10.3[16.7 µM]
O=C(N[C@H]1CC[C@H](CCNS(=O)(=O)c2ccc(Cl)cc2)O[C@@H]1CO)c1cccnc1	-4.3	·	·	5.9[16.7 µM]
C[C@H]1CN([C@@H](C)CO)C(=O)c2cc(NC(=O)C3CC3)ccc2O[C@H]1CN(C)Cc1ccc(Oc2ccccc2)cc1	1.8	·	·	5.2[16.7 µM]
C[C@H]1CN([C@@H](C)CO)C(=O)c2cc(NS(C)(=O)=O)ccc2O[C@H]1CN(C)Cc1ccc(Cl)c(Cl)c1	8.1	·	·	48.2[16.7 µM]
C[C@@H]1CN([C@H](C)CO)C(=O)c2cc(NC(=O)C3CC3)ccc2O[C@@H]1CN(C)Cc1ccc(C(F)(F)F)cc1	-3.8	·	·	-6.8[16.7 µM]
CCNC(=O)C[C@H]1C=C[C@H](NS(=O)(=O)c2ccc(C)cc2)[C@H](CO)O1	-15.5	·	·	2.7[16.7 µM]
CCC(=O)N1C[C@@H](C)[C@@H](OC)CN(C)C(=O)c2ccc(NC(=O)C3CCCCC3)cc2OC[C@@H]1C	3.9	·	·	5.9[16.7 µM]
C[C@@H]1CN([C@H](C)CO)C(=O)c2cc(NS(=O)(=O)c3ccc(F)cc3)ccc2O[C@@H](C)CCCCO[C@@H]1CN(C)C(=O)NC1CCCCC1	3.9	·	·	-110.0[16.7 µM]
C[C@H](CO)N1C[C@H](C)[C@H](CN(C)Cc2ccccc2)Oc2c(NC(=O)NC3CCCCC3)cccc2C1=O	-3.9	·	·	-2.4[16.7 µM]
Cc1noc(C)c1S(=O)(=O)Nc1ccc2c(c1)C(=O)N([C@@H](C)CO)C[C@@H](C)[C@H](CN(C)C(=O)c1ccncc1)OCCCC[C@@H](C)O2	1.4	·	·	24.7[16.7 µM]
O=C(C[C@H]1C[C@@H]2c3cc(NC(=O)c4cccnc4)ccc3O[C@@H]2[C@H](CO)O1)NCc1ccncc1	-9.6	1.3	6.1	·
CCCCn1c(N)c(N(CCOC)C(=O)c2oc3ccc(Br)cc3c2C)c(=O)[nH]c1=O	2.0	-3.0	-4.0	·

Two records picked at random from the list so far, as already listed:
SMILES	Yeast UUG start	MT1-MMP act inh	MT1-MMP act inh RFP	Env fusion inh
C[C@H]1CN([C@@H](C)CO)C(=O)c2cc(NS(C)(=O)=O)ccc2O[C@H]1CN(C)Cc1ccc(Cl)c(Cl)c1	8.1	·	·	48.2[16.7 µM]
C[C@@H]1CN([C@H](C)CO)C(=O)c2cc(NS(=O)(=O)c3ccc(F)cc3)ccc2O[C@@H](C)CCCCO[C@@H]1CN(C)C(=O)NC1CCCCC1	3.9	·	·	-110.0[16.7 µM]

(cont.)
SMILES	Yeast UUG start	MT1-MMP act inh	MT1-MMP act inh RFP	Env fusion inh
O=C(CS(=O)(=O)Cc1ccccc1)c1ccccc1	-2.3	-2.4	2.2	·
O=S(=O)(Nc1cc(Cl)ccc1-n1cncn1)c1cc(Br)ccc1Br	-6.8	-1.2	-26.2	·
CCCCN(C(=O)CCCc1nc2ccccc2s1)c1c(N)n(CC(C)C)c(=O)[nH]c1=O	-6.1	-1.8	1.2	·
CC1CCCCC1NC(=O)c1ccc2c(c1)OCCO2 (stereo unspecified)	11.0	0.7	4.1	·
COc1ccc(Cl)cc1NC(=O)CN(C)C(=O)c1cn2ccccc2n1	-13.4	-1.6	-7.3	·
CC(C)n1ncc2c(C(=O)NCC(=O)Nc3ccccc3Br)cc(C3CC3)nc21	-8.7	0.5	1.5	·
O=C(Cc1ccc2c(c1)OCCO2)Nc1cccc(S(=O)(=O)N2CCOCC2)c1	6.2	-1.4	-5.2	·
O=C(COC(=O)CNS(=O)(=O)c1ccc(Cl)cc1)NC1CCCCC1	-2.9	-2.5	-0.1	·
COc1ccc(OCC(=O)N2CCN(S(=O)(=O)c3ccc(Cl)s3)CC2)cc1	-39.3	1.0	-0.4	·
CCOC(=O)[C@@H](NC(=O)CC[C@H]1O[C@@H](n2ccc(=O)[nH]c2=O)[C@H](O)[C@@H]1O)C(C)C	-4.8	1.4	4.9	·
COC(=O)[C@@]1(Cc2ccccc2)[C@H]2C(=O)N(Cc3ccccc3)C(=O)[C@H]2[C@H]2CN=C(SCc3ccc(C)cc3)N21	-14.0	-9.7	-11.4	·
Cc1ccc(CN2CCC[C@]3(N[C@H](c4ccccc4)[C@@H]4C(=O)N(C)C(=O)[C@@H]43)C2=O)cc1	-2.2	-1.1	2.4	·
CC(C)(C)NC(=O)C[C@H]1C[C@H](C(=O)N2CCOCC2)[C@@]2(C)c3[nH]c4cc(-c5ccco5)ccc4c3CCN2C1=O	-12.6	-0.3	-1.1	·
CN(C)CCCNC(=O)C[C@H]1C[C@H](C(=O)N2CCCCC2)[C@@]2(CCc3ccccc3)c3[nH]c4cc(-c5ccco5)ccc4c3CCN2C1=O	-1.2	1.7	1.0	·
CCN(C(=O)CN1CCCCC1)c1c(N)n(Cc2ccccc2)c(=O)[nH]c1=O	-26.0	-7.8	2.0	·
Cc1ccc(S(=O)(=O)NCC(=O)OC(C)C(=O)NC2CCCCC2C)cc1C (stereo unspecified)	-5.2	-5.9	-2.9	·
CCCCNCCS(=O)(=O)NCc1ccccc1OC	2.5	0.8	4.1	·
COCc1c(C(=O)N2CCN(Cc3ccc4c(c3)OCO4)CC2)oc2ccccc12	-17.9	-2.1	0.2	·
CCN(C(=O)CSc1nc(-c2cccs2)nc2ccccc12)C1CCS(=O)(=O)C1 (stereo unspecified)	-21.5	8.4	0.0	·
CCc1ccccc1Nc1nc(N)nc(COC(=O)CCC(=O)c2ccc(F)cc2)n1	-12.2	-0.9	2.7	·
COc1ccc(NC(=O)c2ccc(NC(=O)CN3CCN(c4ccc(O)cc4)CC3)cc2)cc1	14.6	5.4	-0.5	·
O=C(COC(=O)c1cc(S(=O)(=O)N2CCCC2)ccc1O)NCCc1ccccc1	-0.8	1.4	-1.0	·
CN(c1ccc(Cl)cc1)c1cc2c(c3c1ccn3C)C1CCC2C1 (stereo unspecified)	-4.4	-3.4	-2.3	·
O=C(NC(=S)N1CCCCCC1)c1cccc([N+](=O)[O-])c1	-18.2	4.6	2.8	·
CC(C)CC(C(=O)OCC(=O)N1CCN(c2ccccc2)CC1)N1C(=O)c2ccccc2C1=O (stereo unspecified)	-7.3	-2.1	-5.6	·
CCCSc1nc(N)nc2c1ncn2C1OC(CO)C(O)C1O (stereo unspecified)	-9.5	-7.1	-0.2	·
N#Cc1ccc(C(=O)N2CCN(C(=O)C3CCCO3)CC2)cc1 (stereo unspecified)	6.5	0.5	4.7	·
O=C(CN1CCc2ccccc2C1)Nc1ccccc1C(=O)NC1CC1	-16.7	2.5	1.4	·
CCCNC(=O)c1cc(C2CCCCN2S(=O)(=O)Cc2cccc(C(F)(F)F)c2)on1 (stereo unspecified)	-12.8	0.0	0.2	·
CCCCCc1c2c(cc(O)c1C(=O)O)OC(=O)c1cc(C(=O)CCCC)c(OC)cc1O2	-0.9	-0.4	6.4	·
COC(=O)c1ccc(CNC(=O)/C=C/[C@H]2O[C@@H](n3cc(C)c(=O)[nH]c3=O)C[C@@H]2O)cc1	-14.8	2.2	5.0	·
CC(Sc1ccc(Cl)cc1)C(=O)NNC(=O)c1ccncc1 (stereo unspecified)	-29.0	0.0	2.2	·
O=C(OCn1nnc2ccccc2c1=O)c1cccc(S(=O)(=O)N2CCOCC2)c1	0.0	-1.1	0.3	·
O=C(NCCc1ccccc1F)C1CC(=O)N(c2ccc3c(c2)OCCO3)C1 (stereo unspecified)	6.1	-1.9	0.4	·
COc1ccc(CCN2CC(C(=O)OC(C)C(=O)Nc3ccc(NC(C)=O)cc3)CC2=O)cc1OC (stereo unspecified)	-3.6	0.9	-0.6	·
Nc1ccccc1C(=O)N1O[C@@H]2C=C[C@H]1CC2	-12.3	2.6	3.0	·
Nc1cc(C(=O)OCC(=O)N2CCC(Cc3ccccc3)CC2)ccc1Cl	-13.5	-0.7	-2.3	·
Cc1ccc(S(=O)(=O)N2CCN(C(=O)C(Cc3ccccc3)NC(=O)c3ccccc3)CC2)cc1 (stereo unspecified)	-4.8	3.4	0.8	·
c1csc(CCCN2CCCCC2)c1	-3.1	4.8	3.3	·
COc1cc(O)c(C(C)=O)c2c1C=CC(C)(C)O2	-24.5	-5.1	-2.6	·

2 entries from above in another layout:
Values run as follows: Yeast UUG start	MT1-MMP act inh	MT1-MMP act inh RFP	Env fusion inh
> CC(Sc1ccc(Cl)cc1)C(=O)NNC(=O)c1ccncc1 (stereo unspecified)
    -29.0	0.0	2.2	·
> O=C(OCn1nnc2ccccc2c1=O)c1cccc(S(=O)(=O)N2CCOCC2)c1
    0.0	-1.1	0.3	·

Following part.
SMILES	Yeast UUG start	MT1-MMP act inh	MT1-MMP act inh RFP	Env fusion inh
C[C@@H]1COC(=O)[C@H](NC(=O)OCC2c3ccccc3-c3ccccc32)C/C=C\C[C@@H](CC(=O)N(CCO)Cc2ccccc2)C(=O)N1	-8.1	1.1	-1.5	·
O=C(OCC(=O)C12CC3CC(CC(C3)C1)C2)c1ccc(CO)cc1	-22.3	-1.9	5.7	·
COc1ccc(CNC(=O)CC[C@H]2O[C@@H](n3ccc(=O)[nH]c3=O)[C@H](O)[C@@H]2O)cc1	-9.2	4.9	3.8	·
CCOC(=O)C1(C)CCCCCN1C(=O)c1ccco1 (stereo unspecified)	-15.1	-1.5	1.9	·
C=CC[C@@H](CC(=O)N(CCO)Cc1ccccc1)C(=O)N[C@@H](COC(=O)[C@H](CC=C)CC(=O)OC(C)(C)C)Cc1c[nH]c2ccccc12	-5.6	-24.5	-21.8	·
O=C(CC(O)CCc1ccccc1)c1ccc(O)cc1 (stereo unspecified)	-9.0	8.8	0.6	·
